Screening results (PubChem BioAssay)
GALR2 ag – GALR2 receptor agonists, primary screen, cell-based; GALR2-expressing cells, agonist activation read-out; Galanin receptor type 2 (Homo sapiens), O43603; actives 0.48% (n = 140,000); activation, %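 (tested at 5 µM)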;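 active = above mean plus 3 SD of all compounds, about 5% in these data, not always enough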;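 note: 0% = vehicle buffer wells and 100% = reference agonist at full effect; tested in CHO reporter cells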
Target sequence (O43603 whole entry, looked up): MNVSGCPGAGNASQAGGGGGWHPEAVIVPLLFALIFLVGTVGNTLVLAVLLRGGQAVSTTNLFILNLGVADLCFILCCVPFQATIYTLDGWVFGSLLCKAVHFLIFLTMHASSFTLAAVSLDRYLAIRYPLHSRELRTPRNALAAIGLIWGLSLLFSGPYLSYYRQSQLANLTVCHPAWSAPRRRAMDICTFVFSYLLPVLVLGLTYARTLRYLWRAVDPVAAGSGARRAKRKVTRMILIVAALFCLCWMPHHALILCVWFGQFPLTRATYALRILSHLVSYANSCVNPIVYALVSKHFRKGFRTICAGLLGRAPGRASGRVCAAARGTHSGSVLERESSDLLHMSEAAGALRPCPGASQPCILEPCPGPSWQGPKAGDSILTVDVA
PKD1 kinase inh – inhibitors of human PKD1 kinase, biochemical, fluorescence polarization | Serine/threonine-protein kinase D1 (Homo sapiens), Q15139 | PKD1 kinase fluorescence polarization assay | inhibition, %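 (about 10 µM by stock and volumes)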 | actives 0.056% (n = 200,000) | AID 797, 2007;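 active = inhibition of 50% or more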;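 note: controls were vehicle for no effect and a reference inhibitor for full effect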
RGS16-Gao HTS – modulators of RGS16 binding to Galphao, primary screen, biochemical, human proteins, multiplexed bead flow cytometry; actives 0.38% (n = 220,000); binding response (% of control), % at 10 µM; Regulator of G-protein signaling 16 (Homo sapiens) + Guanine nucleotide-binding protein …; bead-based flow cytometry RGS16-Galphao binding, fluorescence; actives lie on both sides; AID 1441, 2008;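 active = below 25% or above 175%, edge rows of some plates excepted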;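 note: Galphao activated by GDP with aluminum fluoride before binding; 100% = wells without compound and 0% = beads without RGS; some results beyond the cut were filed as inactive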
Target sequence (O15492 whole entry, looked up): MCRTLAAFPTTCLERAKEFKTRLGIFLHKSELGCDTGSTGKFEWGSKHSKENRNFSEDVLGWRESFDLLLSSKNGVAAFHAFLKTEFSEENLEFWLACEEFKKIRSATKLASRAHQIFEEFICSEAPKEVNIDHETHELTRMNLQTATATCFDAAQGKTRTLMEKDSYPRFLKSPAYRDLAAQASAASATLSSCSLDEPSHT
Target sequence (P09471 whole entry, looked up): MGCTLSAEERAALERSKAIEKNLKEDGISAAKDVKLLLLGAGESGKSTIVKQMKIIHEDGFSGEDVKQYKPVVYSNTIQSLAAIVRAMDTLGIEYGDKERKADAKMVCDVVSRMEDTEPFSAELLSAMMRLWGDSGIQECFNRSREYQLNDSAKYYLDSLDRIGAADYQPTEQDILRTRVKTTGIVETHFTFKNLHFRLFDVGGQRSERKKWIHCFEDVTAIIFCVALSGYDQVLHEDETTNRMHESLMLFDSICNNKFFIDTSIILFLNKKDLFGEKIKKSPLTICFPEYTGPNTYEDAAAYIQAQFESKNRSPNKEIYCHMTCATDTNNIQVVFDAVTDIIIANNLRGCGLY
HSV replic up – enhancers of HSV replication in host cells, fold increase, host cell viability; HSV replication augmentation in cells; maximum fold increase; actives 0.005% (n = 220,000); AID 1956, 2009;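 active = peak rise of 1.5-fold or more in the series; tested in PC3 cells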;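 note: first round at 10 µM; read as green reporter fluorescence; hits show the peak of a series up to 25 µM; 1 = signal of infected wells without compound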
Insulin prom inh – inhibitors of insulin promoter-driven GFP, primary screen, imaging, TRM-6 cells (human fetal islet line), eGFP reporter, cell count; reporter expression induced with tamoxifen; inhibition, % at 2 µM; actives 0.9% (n = 130,000);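 active = inhibition above the mean plus 3 SD, with well images judged a real hit on visual review, cut at about 60% in these data, passing the limit was not always enough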
Insulin prom inh cell count – further read-out of Insulin prom inh, marked with its call; normalized cell count, %; measured here: cell count, toxicity; reference of the scale not given here;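 cells exposed to compound for 48 h; stained nuclei by imaging scaled within each plate; lower means fewer cells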
HSV replic up primary fold – recorded beside HSV replic up, whose call it bears; fold increase; compound at 10 µM; measured here: primary screen fold increase 10 uM; tested in PC3 cells;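 GFP signal in the first replicate; 1 = infected wells without compound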
An asterisk follows results filed as active; i = inactive; nt = not tested or not shown.

SMILES	GALR2 ag	PKD1 kinase inh	RGS16-Gao HTS	HSV replic up	HSV replic up primary fold	Insulin prom inh	Insulin prom inh cell count
O=C(O)c1ccc(Nc2ncc([N+](=O)[O-])cc2[N+](=O)[O-])cc1	nt	2	66	i	1.1	nt	nt
CCC(C)NS(=O)(=O)c1ccc(S(=O)(=O)N(CC(=O)Nc2ccccc2)CC2CCCO2)cc1 (centres undefined)	0.0	-10	103	i	0.91	-41	138
COc1ccc(C2=NOC3(CC(=O)N(c4ccc(C)cc4)C3=O)C2)c(OC)c1 (centres undefined)	-1.6	-12	94	i	0.91	-21	76
COc1cc(NC(=O)CCn2c(=O)[nH]c3ccsc3c2=O)cc(OC)c1	-2.1	-3	103	i	0.88	16	48
COc1ccc(-c2nc(N)n(C(=O)c3ccc(C)cc3)n2)cc1	-1.8	3	99	i	1	15	117
CCN(CC)CCN1CCn2c3c(c4cc(C)ccc42)CCCC31 (centres undefined)	-1.3	5	118	i	1.5	-16	81
Cc1cc(N(CC(=O)NC2CC2)S(C)(=O)=O)ccc1Br	-0.7	-2	96	i	1	24	82
CC(=O)NC1=NC(=O)C(C)S1 (centres undefined)	0.1	13	100	i	0.92	16	175
O=c1c(Cl)c(N2CCNCC2)cnn1C12CC3CC(CC(C3)C1)C2	nt	3	101	i	0.91	-29	122
COc1ccc(-c2ccnc(SCC(=O)N3CCN(c4ccccc4)CC3)n2)cc1	nt	nt	105	i	0.85	nt	nt
COc1ccc(S(=O)(=O)NCCSCc2ccco2)cc1	0.7	-12	100	i	1.1	nt	nt
COC(=O)c1cc(OC)c(OC)cc1NC(=O)c1ccc(C)o1	1.5	-2	98	i	0.98	-38	141
COc1ccc(NC(=O)Cn2ncc(Cl)c(Cl)c2=O)cc1S(=O)(=O)N1CCOCC1	-1.4	-4	101	i	0.63	-14	56
COc1cccc(CN(CC(=O)NC2CCCC2)C(=O)Cn2nnc(-c3cccs3)n2)c1	0.7	-3	106	i	0.98	24	94
COc1cccc(C(C(=O)NC2CCCC2)N(C(=O)c2ccco2)c2ccc(-n3cnnn3)c(C)c2)c1OC (centres undefined)	nt	0	104	i	0.92	nt	nt
Fc1cccc(Cn2cc(C(=S)N3CCOCC3)c3ccccc32)c1	nt	0	98	i	1	nt	nt
Cc1ccccc1NS(=O)(=O)c1ccc(C(=O)OCC(=O)NCC(C)C)cc1	nt	-5	101	i	1	11	119
CCc1nn(CC(=O)NCCCN(CC)CC)c(=O)c2cc3sc(C)cc3n12	nt	nt	98	i	0.98	nt	nt
CCN(C(=O)CN1CCN(c2cccc(C(F)(F)F)c2)CC1)c1c(N)n(Cc2ccccc2)c(=O)[nH]c1=O	nt	0	101	i	0.95	nt	nt
COC(=O)CCCNc1ncccc1[N+](=O)[O-]	nt	2	88	i	0.84	-8	121
COc1ccccc1Nc1ncnc2ccccc12	-0.6	-9	95	i	0.95	nt	nt
CCn1c(SCC(=O)Nc2ncc(C(F)(F)F)cc2Cl)nnc1-c1ccccc1	-0.5	-5	105	i	0.91	nt	nt
O=C(N/N=C/c1cccc(OCC(=O)N2CCCC2)c1)C(=O)Nc1ccccc1F	-0.1	-2	103	i	0.99	-12	122
Cc1ccc2c(c1)c(C)c(C)n2CC(O)CN1CCCCC1C (centres undefined)	-2.6	-9	101	i	0.86	nt	nt
Cc1ccc(C(NC(=O)/C=C\c2ccc3c(c2)OCO3)C(=O)Nc2ccc3c(c2)OCO3)cc1 (centres undefined)	0.4	12	102	i	0.9	38	142

Going on with the list:
SMILES	GALR2 ag	PKD1 kinase inh	RGS16-Gao HTS	HSV replic up	HSV replic up primary fold	Insulin prom inh	Insulin prom inh cell count
CC1=C(C(=O)NCc2ccccc2)C(c2ccccc2OCC(N)=O)NC(=O)N1 (centres undefined)	-1.4	0	104	i	0.82	-3	70
Cc1oc2cc(O)ccc2c(=O)c1Oc1ccc2ccccc2c1	-2.8	-8	99	i	0.81	15	86
CC(=NCc1ccco1)c1c(C(F)(F)F)[nH]n(-c2nc3ccccc3s2)c1=O	-3.2	-2	113	i	0.82	33	108
O=C(c1cccc(S(=O)(=O)N2CCOCC2)c1)N(CCO)Cc1ccccc1	0.3	-2	99	i	0.92	-18	80
Cn1c(SC2C(=O)CC(C)(C)CC2=O)nnc1-c1ccco1	-1.2	2	70	i	0.86	31	123
Cc1cccc(Oc2nc(-c3cccc([N+](=O)[O-])c3)nc3ccccc23)c1C	-1.6	-2	109	i	0.66	-25	66
COc1cc(C(c2sc3nc(C)nn3c2O)N2CC(C)CC(C)C2)cc(OC)c1OC (centres undefined)	0.2	4	100	i	0.82	nt	nt
COc1cc2nc(CN3CCOCC3)n(CC(=O)N3CCCCCC3)c(=O)c2cc1OC	nt	nt	100	i	1.2	nt	nt
CC1CCC(C(C)C)C(OC(=O)CSc2n[nH]c(=O)[nH]c2=O)C1 (centres undefined)	-0.6	-2	94	i	1.1	30	132
O=C(CSc1nc2ccccc2n1S(=O)(=O)c1ccccc1)N1CCCC1	-1.3	11	104	i	0.88	50	122
CC(=O)Nc1ccc(NC(=O)Nc2cccc(C)c2C)cc1	nt	-4	101	i	0.95	14	77
CCCN1C/C(=C/c2ccc3c(c2)OCO3)C(=O)/C(=C/c2ccc3c(c2)OCO3)C1	-0.3	-2	101	i	0.96	-84	76
CCOC(=O)c1cc(-c2ccccc2)sc1N	-1.0	-4	93	nt	nt	16	34
Cc1ccc(-n2nnnc2SCc2nnc(-c3ccccc3Br)o2)cc1	-2.2	-6	98	i	0.83	nt	nt
O=C(Cc1csc(-c2ccccc2)n1)NCc1ccc(F)cc1	-1.2	0	99	i	1.2	nt	nt
Cc1nnc(SCc2ccc(C(=O)O)cc2)s1	0.1	-7	104	i	1	-25	78
O=C(CCN1C(=O)c2ccccc2C1=O)Nc1nc2ccccc2s1	-0.8	0	101	i	1.1	nt	nt
Cc1c(Cl)c([N+](=O)[O-])nn1CC(=O)NC1CCCCC1	-5.4	-4	102	i	1.1	nt	nt
Cc1ccc(/C=N/NC(=O)CNC(=O)COc2ccc(Cl)cc2)o1	nt	-3	95	i	0.89	31	138
CCC(=O)N1CCc2cc(S(=O)(=O)NC(C(=O)NC(C)c3ccccc3)C(C)C)ccc21 (centres undefined)	-3.3	1	100	i	0.73	-20	85
Cn1ccnc1Sc1nc2c(c(=O)n(C)c(=O)n2C)n1C	-1.5	-1	101	i	1.1	-57	80
CCCC(C(=O)NCc1ccco1)N(C(=O)CNS(=O)(=O)c1ccccc1)c1ccc(OC)cc1 (centres undefined)	nt	-2	116	i	1	-122	32
CCOc1ccc(-c2nnn(CC(=O)Nc3cc(OC)cc(OC)c3)n2)cc1OCC	-2.6	-5	92	i	0.82	nt	nt
CCn1c(SCC(=O)Nc2ccc(C(=O)OC)cc2)nc2cccnc21	-1.6	-6	99	nt	nt	-127	172
CC(C)[C@H](NC(=O)c1ccccc1)C(=O)OCC(=O)c1ccccc1F	nt	-1	90	i	0.89	nt	nt

Taken from above:
Reading of CCC(=O)N1CCc2cc(S(=O)(=O)NC(C(=O)NC(C)c3ccccc3)C(C)C)ccc21 (centres undefined) in PKD1 kinase inh: 1
Reading of Cc1c(Cl)c([N+](=O)[O-])nn1CC(=O)NC1CCCCC1 in GALR2 ag: -5.4
Reading of COc1cc(C(c2sc3nc(C)nn3c2O)N2CC(C)CC(C)C2)cc(OC)c1OC (centres undefined) in PKD1 kinase inh: 4
Reading of Cc1ccc(-n2nnnc2SCc2nnc(-c3ccccc3Br)o2)cc1 in RGS16-Gao HTS: 98
Reading of CC(=O)Nc1ccc(NC(=O)Nc2cccc(C)c2C)cc1 in PKD1 kinase inh: -4

Another view of some results above:
Compound,GALR2 ag,PKD1 kinase inh,RGS16-Gao HTS,HSV replic up,HSV replic up primary fold,Insulin prom inh,Insulin prom inh cell count
Cc1oc2cc(O)ccc2c(=O)c1Oc1ccc2ccccc2c1,-2.8,-8,99,i,0.81,15,86
CC(=NCc1ccco1)c1c(C(F)(F)F)[nH]n(-c2nc3ccccc3s2)c1=O,-3.2,-2,113,i,0.82,33,108

(further entries)
SMILES	GALR2 ag	PKD1 kinase inh	RGS16-Gao HTS	HSV replic up	HSV replic up primary fold	Insulin prom inh	Insulin prom inh cell count
Cc1nc2ccccc2c(=O)n1NC(=O)Cc1ccc(Br)cc1	-2.4	0	100	i	1.1	-35	166
c1ccc(-n2c(-c3ccncc3)nnc2-c2ccco2)cc1	-1.1	4	87	i	0.84	nt	nt
COc1ccc(/C(O)=C2/C(=O)C(=O)N(CCN3CCOCC3)C2c2cccnc2)cc1OC (centres undefined)	-1.3	-7	99	i	0.97	24	87
CNC(=O)c1ccccc1-c1ccccc1	-0.3	-6	100	i	0.96	15	63
c1ccc(Oc2cccc(OCCCCSc3ncccn3)c2)cc1	-1.6	-5	101	i	1	71	166
COc1cc(C(C)=O)ccc1OCC(=O)c1cc(C)n(C2CC2)c1C	-2.0	0	98	i	0.84	nt	nt
O=C(O/N=C1\C(=O)N(c2ccccc2)c2ccccc21)C1CC1	nt	-4	100	i	0.86	-56	83
COc1ccccc1C(CCN(Cc1ccccc1)C(C)=O)c1ccco1 (centres undefined)	nt	nt	102	i	0.85	nt	nt
O=C(NC1CCCCC1)N1CCN(Cc2nc3ccccc3c(=O)[nH]2)CC1	-1.5	-5	nt	i	0.96	-52	94
CCOc1ccc(N2C(=O)CC(SCCN)C2=O)cc1 (centres undefined)	-3.0	-12	103	i	0.79	-11	148
CCCc1nc2sc3c(c2c(=O)n1NC(=O)CCCl)CCCC3	-1.2	-1	89	nt	nt	57	51
CCOC(=O)c1cnn(-c2nc(-c3cccc(F)c3)cs2)c1C(F)(F)F	-5.0	-4	103	i	1.1	-18	139
CCn1c(=O)c(-c2ccccc2)c(O)c2ccccc21	0.3	-8	105	i	0.77	-36	127
O=C(CCNC(=O)c1ccccc1Cl)OCC(=O)c1ccccc1	nt	1	99	i	0.94	nt	nt
COc1cc(NS(=O)(=O)c2ccc(N/C=C(\C=O)c3nc4cc(Cl)ccc4o3)cc2)nc(OC)n1	-1.7	0	101	i	1.1	-20	108
O=C(NC1CCCC1)C(c1ccccc1)N(Cc1ccco1)C(=O)Cc1cccs1 (centres undefined)	0.4	-7	113	i	1.1	-10	187
N#C/C(=C\c1c(N2CCCCCC2)nc2ccccn2c1=O)C(=O)NCc1ccco1	nt	nt	102	i	0.81	nt	nt
COCc1nc2ccccc2n1CCCOc1ccccc1	-1.1	-10	102	i	1.1	3	85
C1=CCC(/C=N/n2cnnc2)CC1 (centres undefined)	-0.9	0	96	i	0.97	-16	90
COCC(=O)Nc1nnc(COc2ccc(Cl)cc2)s1	-2.5	-9	117	i	0.85	46	122
C=CCn1c(SCC(=O)Nc2ccc(N(C)C)cc2)nnc1-c1cccc(C)c1	0.6	-5	100	i	0.57	-93	89
CCN1CCCc2cc(CN(CCN3CCOCC3)C(=S)Nc3ccc(C)cc3)ccc21	nt	1	100	i	0.9	25	111
Cc1ccc(NC(=O)Nc2nnc(Cc3ccc([N+](=O)[O-])cc3)s2)cc1C	-0.4	6	106	i	0.69	65	193
COCCNC(=S)N/N=C(\C)c1ccc(Cl)c(Cl)c1Cl	nt	-2	102	i	0.98	nt	nt
O=C1NC(NS(=O)(=O)c2ccccc2)(C(F)(F)F)C(=O)N1Cc1cccnc1 (centres undefined)	0.2	2	103	i	0.91	nt	nt

Later entries
SMILES	GALR2 ag	PKD1 kinase inh	RGS16-Gao HTS	HSV replic up	HSV replic up primary fold	Insulin prom inh	Insulin prom inh cell count
NC(=O)[C@H](Cc1cc2ccccc2s1)NC(=O)[C@@H]1CC2(CC(c3cccc(NC(=O)[C@@H]4CCC(=O)N4)c3)=NO2)CN1C(=O)/C=C/c1c(F)cccc1Cl (some centres undefined)	-3.1	-4	98	i	0.85	nt	nt
Cc1cccc(C)c1NC(=S)N1CC(C)OC(C)C1 (centres undefined)	nt	nt	103	i	1.1	nt	nt
CCCCOc1ccc(CC2CCC(=O)NC2=O)cc1 (centres undefined)	nt	-7	108	i	0.87	7	117
CCCN=Cc1ccc(O)cc1	nt	-2	99	i	1	-10	85
CC(=O)c1c(C)[nH]c(C(=O)NCc2ccc(F)cc2)c1C	nt	-4	109	i	0.93	25	90
COc1ccc2nc(NC(=O)CN(C)S(=O)(=O)c3cccs3)sc2c1	0.8	2	101	i	0.95	-5	109
CCN(CC)S(=O)(=O)c1cccc(NC(=O)C(=O)c2c(-c3ccccc3)cc3ccccn23)c1	-1.8	-6	89	nt	nt	17	95
CCOCCCNS(=O)(=O)c1ccc(NC(=O)N2c3ccccc3Sc3ccccc32)cc1	-1.1	-14	94	i	0.71	nt	nt
